Screening data deposited in PubChem BioAssay by several laboratories.
RanGTP-Impb inh = inhibitors of RanGTP-importin-beta interaction, primary screen, biochemical, FRET, CFP-Ran, YFP-importin-beta, homogeneous | actives 1.1% (n = 300,000) | inhibition, % (concentration not given with the values) | cell-free CFP-Ran/YFP-importin-beta FRET ratio;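 active = most replicates above 15%; inconclusive = exactly half above 15%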;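 also: 0% = DMSO wells and 100% = Ran loaded with GDP instead of GTP; wells of about 40 µL received 100 nL stock; the first replicate is given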
B2AR ag = activates human beta-2 adrenergic receptor causing internalization; actives 0.43% (n = 340,000); P07550; Am2.2-beta2AR cells, FAP receptor internalization, flow cytometry; reference of the scale not given here; response, % (concentration not given with the values);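 active = response above a set limit, near 3 SD of response in nonfluorescent compounds, cut at about 42% in these data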;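 also: stock transfer was 100 nL into about 11 µL; a reference agonist was the positive control; negative values mostly stem from fluorescent compounds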
Target sequence (P07550 whole entry, looked up): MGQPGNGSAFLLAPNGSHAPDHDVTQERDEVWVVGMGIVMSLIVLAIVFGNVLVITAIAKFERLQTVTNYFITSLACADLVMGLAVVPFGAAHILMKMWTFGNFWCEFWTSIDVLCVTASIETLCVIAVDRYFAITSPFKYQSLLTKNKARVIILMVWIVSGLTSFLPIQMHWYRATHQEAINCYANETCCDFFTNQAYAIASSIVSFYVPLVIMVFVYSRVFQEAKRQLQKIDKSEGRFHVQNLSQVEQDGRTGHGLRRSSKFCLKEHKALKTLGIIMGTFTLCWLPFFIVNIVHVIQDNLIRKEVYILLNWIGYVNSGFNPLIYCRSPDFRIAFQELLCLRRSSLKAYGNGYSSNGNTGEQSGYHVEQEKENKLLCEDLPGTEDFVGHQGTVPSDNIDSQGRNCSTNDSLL
LANA-H2B inh = blocks KSHV LANA binding to histone H2A/H2B. cell-free LANA-H2A/H2B peptide, fluorescence polarization. inhibition, % (test concentration not listed). actives 0.6% (n = 320,000); in the data active = inhibition mostly above about 10%, no sharp cut-off; inactive = mostly below about 6.7%;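 also: stock transfer was 7.5 nL into about 10 µL; 0% = median of vehicle wells and 100% = median of positive control wells; one replicate is shown; the record names a cut of 25% in any replicate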
HNF4A DNA FP = change in binding of human HNF4 alpha to DNA; HNF4a-FITC DNA binding, fluorescence polarization, 1 h; P41235; actives 0.3% (n = 360,000); activity change, % at 10 µM; in the data active = activity change above about 30%, passing the limit was not always enough;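 also: controls were the assay level and a saturating level of protein; the project sought stronger binding though the title names inhibitors; some compounds called inactive have numbers as strong as hits; positive values seem to mean higher polarization but the record does not say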
Target sequence (P41235 whole entry, looked up): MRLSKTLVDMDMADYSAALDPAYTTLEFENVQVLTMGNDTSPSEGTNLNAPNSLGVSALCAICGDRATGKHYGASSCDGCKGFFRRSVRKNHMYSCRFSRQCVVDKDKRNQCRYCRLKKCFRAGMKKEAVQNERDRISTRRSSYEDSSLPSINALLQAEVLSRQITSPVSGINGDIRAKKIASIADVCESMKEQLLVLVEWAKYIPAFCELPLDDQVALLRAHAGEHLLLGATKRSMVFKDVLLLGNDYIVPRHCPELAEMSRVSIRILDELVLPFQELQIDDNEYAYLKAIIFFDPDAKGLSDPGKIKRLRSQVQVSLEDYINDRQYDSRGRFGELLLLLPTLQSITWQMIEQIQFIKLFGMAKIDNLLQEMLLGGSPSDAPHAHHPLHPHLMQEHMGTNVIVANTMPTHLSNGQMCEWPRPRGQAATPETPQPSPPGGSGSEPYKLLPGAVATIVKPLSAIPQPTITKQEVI
Calb FLC = affects C. albicans growth with fluconazole; growth inhibition, % (test concentration not listed); AID 1979; C. albicans CaCi-2 (fluconazole-resistant clinical isolate) + fluconazole, Alamar Blue growth, 48 h; actives 0.57% (n = 300,000);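 active = most replicates above 75%; inconclusive = exactly half above 75%; inactive = most below 75%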;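 also: all wells also contain fluconazole at 8 µg/ml as a sub-toxic cotreatment; 0% = median of DMSO wells and 100% = median of geldanamycin control wells; wells of about 8 µL received 7.5 nL stock; the first replicate is given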
Vif TR-FRET = HIV-1 Vif–A3G interaction blockers – biochemical, TR-FRET, GST-Vif 1-94, biotin-A3G peptide, dose response retest, primary screen (AID 1117319); TR-FRET GST-Vif / biotin-A3G peptide binding; higher % means a stronger effect; test concentration not given here; strong numbers were not always called active; one-dose inhibition, %; IC50 in µM for titrated hits; actives 0.57% (n = 260,000);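 active = above the screen mean plus three standard deviations and confirmed in dose response; inconclusive = results disagree or hit not tested in dose response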;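 also: Vif residues 1-94 fused to GST binding biotinylated APOBEC3G peptide 110-148; 0% = full assay without inhibitor and 100% = GST in place of GST-Vif; retest series ran down from 100 µM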
ALR H2O2 inh = inhibitors of human sulfhydryl oxidase ALR; P55789; purified ALR, DTT oxidation, H2O2 HRP-luminol luminescence; inhibition, % (no concentration beside the values); AID 485317; actives 3.8% (n = 290,000);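 active = mean and each replicate at 75% or more; inconclusive = only one of the two met; inactive = neither met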;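 also: stock transfer was 7.5 nL into about 7.5 µL; 0% = neutral wells and 100% = wells with inactivated enzyme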
Target sequence (P55789 whole entry, looked up): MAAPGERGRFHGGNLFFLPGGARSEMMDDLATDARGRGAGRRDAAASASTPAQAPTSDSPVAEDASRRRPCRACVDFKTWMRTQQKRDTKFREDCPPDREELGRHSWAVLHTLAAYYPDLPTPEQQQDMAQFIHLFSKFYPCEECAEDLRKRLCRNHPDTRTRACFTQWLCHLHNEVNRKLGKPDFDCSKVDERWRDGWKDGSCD
Numbers without * were called inactive; ? = inconclusive; · = not tested or not shown; & = joins results of further samples.

SMILES	RanGTP-Impb inh	B2AR ag	LANA-H2B inh	HNF4A DNA FP	Calb FLC	Vif TR-FRET	ALR H2O2 inh
O=C(Cc1ccccc1[N+](=O)[O-])N1CCN(c2ccccc2F)CC1	-4.1	8	-4.1	0.5	2	4%	·
COCCn1c(SCC(=O)NNC(=O)Cc2ccccc2)nc2ccccc2c1=O	7.3	4	-6.1	-1.4	-2	-3%	-5
Fc1cccc(CNCC2CCCO2)c1 (stereo not given)	5.5	-4	0.7	1.3	-6	-2%	-5
Cc1ccnn1CCC(=O)N1CCCC(CCC(=O)NCc2ccccc2F)C1 (stereo not given)	1.0	2	7.2	0.0	-12	·	0
O=C(CC1C(=O)NCCN1Cc1ccccc1C(F)(F)F)NCCc1ccccn1 (stereo not given)	0.2	-9	1.0	-2.3	2	18%	-21
OC(COc1cccc2ccccc12)CN1CCN(c2cccc(Cl)c2)CC1 (stereo not given)	-1.0	-6	-6.9	1.9	0	-2%	-8
O=C(Nc1ccccc1)/C(=C/c1cccnc1)NC(=O)c1ccco1	-1.3	10	0.4	-3.7	2	·	1
COc1ccc(C)cc1NS(=O)(=O)c1ccc2c(c1)n(C)c(=O)n2C	?	1	-6.0	4.2	9	-1%	-5
O=Cc1ccc(-n2cncn2)cc1	?	0	-3.0	-0.3	-12	-8%	-3
COc1cc(CC2COC(=O)C2(O)Cc2ccc(O)c(OC)c2)ccc1O (stereo not given)	0.2	-4	7.7	-1.3	3	·	87*
O=C1CN(C(=O)c2ccccc2F)C(c2ccc(F)cc2)c2cc(Br)ccc2N1 (stereo not given)	-4.5	0	-1.5	-2.5	1	-18%	-13
COc1ccc(CN(C)C(=O)c2ccc(OCC(=O)Nc3cccc(C(F)(F)F)c3)c(OC)c2)c(OC)c1	·	4	-0.7	-0.5	-2	·	19
Cc1ccc(NC(=O)c2ccc(N/N=C/c3cccc(O)c3)c([N+](=O)[O-])c2)cc1	-4.8	7	-1.1	6.7	-6	-3%	-24
O=C1C[C@H]2[C@H](CO)[C@@H](OC(=O)c3ccc(-c4ccccc4)cc3)C[C@H]2O1	0.9	-3	-0.4	1.2	-1	25%	-8
CC1CC(C)CN(C(=O)Cn2c(SCC(=O)N3CCc4ccccc4C3)nc3ccccc32)C1 (stereo not given)	-1.5	·	1.9	-0.6	-6	-2%	·
CCn1c(=NC(=O)c2ccc(S(=O)(=O)N(C)C)cc2)sc2cccc(OC)c21	-1.9	1	6.8	-1.1	5	-4%	5
O=[N+]([O-])c1ccc(Sc2n[nH]c(-c3ccc(Cl)cc3Cl)n2)nc1	-1.2	0	-3.7	0.9	2	-7%	26
N=C(N)CCCOc1ccccc1-c1ccccc1	1.3	0	-5.0	0.7	2	0%	1
O=C(O)c1cc(N2CCCCC2)ccn1	·	-9	·	6.1	·	-9%	·
O=C(NC1CCC(O)CC1)c1ccc(NS(=O)(=O)c2cccc([N+](=O)[O-])c2)cc1 (stereo not given)	·	-2	24*	0.2	·	-2%	-6
COc1ccc(CCC(C)Nc2cccc(C)c2)cc1 (stereo not given)	4.8	4	-0.8	2.9	16	-2%	99*
CN1C(=O)/C(=C/c2ccc(O)c([N+](=O)[O-])c2)NC1=S	1.6	3	1.8	-1.6	24	10%	46
CCc1cc(C(=O)N2CCN(S(=O)(=O)c3ccc(Cl)cc3)CC2)sc1C	·	8	2.5	-0.6	·	·	-16
NS(=O)(=O)c1ccc(NNC(=O)c2ccccc2)cc1	0.6	-2	1.3	3.2	-4	-1%	-8
O=C(Cc1c(F)cccc1Cl)Nc1ccccn1	0.5	-7	-2.8	1.3	6	·	6
Cc1ccccc1OC1CCN(C(=O)c2cc(COc3ccccc3)on2)CC1	4.7	5	5.4	2.3	1	·	-2
CC(C)Cc1nccs1	·	0	-0.8	4.2	·	·	·
Fc1ccc(-c2csc(=S)[nH]2)cc1	2.0	0	-1.0	-1.3	-29	·	20
CC1=NN(c2cc(Cl)c(S(=O)(=O)O)cc2Cl)C(=O)C1	·	-3	·	-2.7	·	9%	·
CCCNC(=O)c1ccc(N2CCC3(CC2)CC(c2cccc(Br)c2)=NO3)c(NC(=O)c2cccc(C)c2)c1	-1.6	-2	4.4	3.1	9	·	-9
Cc1ccccc1-c1nc(CS(=O)(=O)CC(=O)NCCCN2CCOCC2)c(C)o1	-1.9	-6	-1.7	-1.2	-3	·	-16
Cc1ccc(S(=O)(=O)ON2C(=O)c3cccc4cccc(c34)C2=O)cc1	-3.3	-1	3.8	-2.1	1	12%	-14
NC(=O)CC(NSc1ccccc1[N+](=O)[O-])C(=O)O (stereo not given)	?	-6	1.6	-2.8	-2	28%	-3
CC(C)CN(CCCNC(=O)CC1Oc2ccccc2NC1=O)CC(C)C (stereo not given)	1.3	-2	-0.8	-0.4	-7	4%	-1
CCn1cc(CNCc2cn[nH]c2-c2cc3ccccc3o2)cn1	-1.0	0	0.9	-2.4	-11	?	-6
Cc1cc2c(c(=O)n1CCCn1ccnc1)C(c1ccco1)C(C#N)=C(N)O2 (stereo not given)	5.3	9	0.0	-1.0	-8	0%	11
Cc1ccccc1N(CC(=O)NCCc1ccccc1)C(=O)c1csnn1	1.3	-7	-5.9	2.5	6	-4%	-2
CCc1c(C)nc(N2CCN(c3ccccc3)CC2)[nH]c1=O	5.4	4	-2.7	1.2	2	·	6
CNC(=O)c1cc2cc(Cl)cc(OC)c2oc1=O	5.9	4	3.3	-1.1	6	8%	0
C/C(=N/NC(=O)C(O)(c1ccccc1)c1ccccc1)c1ccc([N+](=O)[O-])o1	4.9	1	1.5	-4.5	?	22%	-34
CCOc1ccc(S(=O)(=O)N2CCCC2)cc1	-1.8	3	2.1	-3.2	7	-2%	1
Cc1cccc2cc(CN(Cc3ccco3)S(=O)(=O)c3ccc4c(c3)OCCO4)c(=O)[nH]c12	3.8	2	4.4	-0.9	-2	29%&0%	-3
CCCC(=O)Nc1ccc(-c2ccc(NC(=O)CCC)cc2)cc1	-1.2	-1	-0.4	1.8	11	·	·
CC(C)[C@H](NC(=O)[C@@H]1Cc2ccccc2CN1C(=O)OC(C)(C)C)C(=O)NCc1ccco1	-0.5	1	0.4	2.9	2	·	-4
Cc1ccc(C)c(S(=O)(=O)N2CCCOC2CNC(=O)C(=O)NCc2cccs2)c1 (stereo not given)	3.9	-6	0.5	3.7	8	4%	-6
CCc1cc(C(=O)OC)c(NC(=O)CSc2nccn2C)s1	1.5	4	0.0	-1.6	8	·	-1
Cc1cc(C)c(C#N)c(SCc2ccc([N+](=O)[O-])cc2)n1	2.7	-2	1.7	4.9	14	·	-1
Cc1[nH]c2ccccc2c1C(=O)COC(=O)C1CC(=O)N(Cc2ccco2)C1 (stereo not given)	-2.0	17	6.3	3.0	-5	5%	·
CC1CC(C)CN(CCCNC(=O)c2ccc3c(SCC(=O)O)c4c(nc3c2)CCC4)C1 (stereo not given)	-0.7	-4	0.4	1.4	5	·	0
Cn1c(N)c(C(=O)CSc2nnc(C3CC3)n2Cc2ccccc2)c(=O)n(C)c1=O	·	-7	-3.1	-2.3	·	1%	-3
Cn1c(SCC(=O)c2ccccc2)nnc1-c1cccs1	0.1	-6	0.0	3.8	-9	-9%	22
CC1(C)C(=O)OC(c2cccs2)C(C)(C)C1=O (stereo not given)	?	3	2.5	10	-3	5%	-3
O=C(NC(=S)Nn1cnc2c(cnn2-c2ccccc2)c1=O)c1ccc(Cl)cc1	5.7	1	1.4	-4.9	101*	20%	4
CCN(c1ccccc1)S(=O)(=O)c1nnc(NC(=O)CC(C)C)s1	-3.1	-2	6.5	1.3	-5	1%	·
CN(CC1COc2ccccc2O1)C(=O)CSc1ncnc2sccc12 (stereo not given)	·	2	-1.1	1.0	·	-2%	-3
S=C(NCCCn1ccnc1)Nc1cccc(Cl)c1	4.2	1	-0.4	-2.4	-5	20%	·
CCc1ccccc1NC(=O)CSc1nc2n[nH]c(C)c2c(=N)n1-c1ccc(OC)cc1	·	3	·	-3.2	·	?	·
CCOc1cc(C#N)c(NC(=O)c2ccco2)cc1OCC	-0.6	0	-1.6	-0.3	18	-4%	·
CCC(NC(=O)c1cc(COc2ccc(C)nc2)on1)c1ccc(C)cc1 (stereo not given)	7.5	-3	2.5	-0.1	46	·	0
CCCSCCCNC(=O)c1ccc(C)c(NC(=O)C2=C(C)OCCS2)c1	1.9	-3	-0.7	0.0	-5	-11%	·

Further entries
SMILES	RanGTP-Impb inh	B2AR ag	LANA-H2B inh	HNF4A DNA FP	Calb FLC	Vif TR-FRET	ALR H2O2 inh
COc1ccc(NC(=O)CN(C)C(=O)c2oc3c(ccc4ccccc43)c2C)cc1	·	16	0.8	2.0	·	32%	-10
O=C(O)c1ccc(NCc2ccncc2)cc1	5.0	-3	-0.6	-0.1	-9	4%	2
CC(C)(C)c1ccc(-n2ncc3c2CCCC3NC(=O)c2csnn2)cc1 (stereo not given)	6.0	-2	-4.2	-2.8	6	·	-18
Cc1ccc(NC(=O)N2CCC(O)(c3cccnc3)CC2)cc1	-0.4	-1	-0.3	-0.9	3	6%	-14
CCOC(=O)C1=C(CS(=O)(=O)c2ccccc2)NC(=O)NC1c1ccccc1OCC (stereo not given)	7.1	4	-3.0	-0.8	6	-1%	-11
O=c1[nH]n2c(=O)c3c([nH]c2c1N=Nc1cccc(C(F)(F)F)c1)CCCC3	1.0	-5	-0.7	1.1	38	22%	97*
CC(NC(=O)C1CCN(S(=O)(=O)c2ccc3c(c2)NC(=O)CO3)CC1)c1ccccc1 (stereo not given)	-2.8	·	-0.1	3.5	1	14%	-5
CCCNc1c(NS(=O)(=O)c2ccc(C)c(C)c2)c(=O)oc2ccccc12	-0.5	-2	·	4.3	-14	·	16
Clc1ccc(OCc2nc(-c3ccccn3)no2)c(Br)c1	?	-6	0.4	-3.4	-2	-6%	-15
CCOC(=O)c1ccccc1NC(=O)CSc1nc2ccccc2c(=O)n1CCCN1CCOCC1	·	21	1.5	-2.2	·	-4%	-11
COC(=O)CN(c1cccc(F)c1)S(C)(=O)=O	0.3	4	-6.5	2.0	11	3%	0
COc1ccc(-c2nc(CSCC(=O)NCc3ccco3)c(C)o2)cc1	?	-3	-2.0	-0.8	-6	27%	99*
CCOc1cc2c(cc1/C=C/C(=O)O)OC(C)C2 (stereo not given)	-2.4	-1	-3.4	-2.8	4	·	22
O=C(CN1CCN(Cc2ccccc2)CC1)Nc1cccc(Cl)c1	1.5	-6	1.3	3.6	-4	-3%	-37
O=C(NCc1ccccc1Cl)C1CCC(=O)N(C2CCCC2)C1 (stereo not given)	3.8	-6	-4.0	-4.3	-16	·	-6
Cc1sc2nc(COC(=O)c3c(F)cccc3F)[nH]c(=O)c2c1C	-1.1	-1	-0.2	1.5	-3	5%	4
Cc1nn(Cc2ccccc2)c(Cl)c1C(=O)OCC(=O)NC(=O)NC12CC3CC(CC(C3)C1)C2	-1.5	5	0.7	4.2	-3	0%	-6
CCOc1ccc2nc(N3CCCC(C(=O)N4CCN(CC)CC4)C3)sc2c1 (stereo not given)	0.2	-6	-1.0	1.2	-1	-2%	-2
O=C(CSc1ncn[nH]1)Nc1ccc(OCc2ccccc2)cc1	-16	-1	0.2	-3.6	-1	·	-5

Quoted at random: 3 compounds from above.
SMILES	RanGTP-Impb inh	B2AR ag	LANA-H2B inh	HNF4A DNA FP	Calb FLC	Vif TR-FRET	ALR H2O2 inh
O=c1[nH]n2c(=O)c3c([nH]c2c1N=Nc1cccc(C(F)(F)F)c1)CCCC3	1.0	-5	-0.7	1.1	38	22%	97*
CCOc1ccc2nc(N3CCCC(C(=O)N4CCN(CC)CC4)C3)sc2c1 (stereo not given)	0.2	-6	-1.0	1.2	-1	-2%	-2
COc1ccc(NC(=O)CN(C)C(=O)c2oc3c(ccc4ccccc43)c2C)cc1	·	16	0.8	2.0	·	32%	-10

Hits appear at their usual frequency, and some 6.3% of all compounds hit somewhere here.
